hNpr1 antagonist: Natriuretic polypeptide receptor (hNpr1) antagonism - Primary qHTS | hit rate 1.6% among 76,000 | Atrial natriuretic peptide receptor 1 (Homo sapiens), P16066 | HEK293 hNpr1 GloSensor cGMP, ANP-stimulated luminescence | Potency, µM (top dose mostly 46.3 µM), for inactives: top-dose activity change, negative = inhibition, actives largely listed as inhibitors; active = well fitted inhibition curve with a large enough effect; inconclusive = small, poorly fitted or top-dose-only effect; inactive = no such curve, though single readings can be large or run the other way;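 also: nearly all actives have a fitted effect of over 60% in size; nearly all hits also lower the signal before the agonist is added; a reference antagonist and vehicle were the controls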
Target sequence (P16066 whole entry, looked up): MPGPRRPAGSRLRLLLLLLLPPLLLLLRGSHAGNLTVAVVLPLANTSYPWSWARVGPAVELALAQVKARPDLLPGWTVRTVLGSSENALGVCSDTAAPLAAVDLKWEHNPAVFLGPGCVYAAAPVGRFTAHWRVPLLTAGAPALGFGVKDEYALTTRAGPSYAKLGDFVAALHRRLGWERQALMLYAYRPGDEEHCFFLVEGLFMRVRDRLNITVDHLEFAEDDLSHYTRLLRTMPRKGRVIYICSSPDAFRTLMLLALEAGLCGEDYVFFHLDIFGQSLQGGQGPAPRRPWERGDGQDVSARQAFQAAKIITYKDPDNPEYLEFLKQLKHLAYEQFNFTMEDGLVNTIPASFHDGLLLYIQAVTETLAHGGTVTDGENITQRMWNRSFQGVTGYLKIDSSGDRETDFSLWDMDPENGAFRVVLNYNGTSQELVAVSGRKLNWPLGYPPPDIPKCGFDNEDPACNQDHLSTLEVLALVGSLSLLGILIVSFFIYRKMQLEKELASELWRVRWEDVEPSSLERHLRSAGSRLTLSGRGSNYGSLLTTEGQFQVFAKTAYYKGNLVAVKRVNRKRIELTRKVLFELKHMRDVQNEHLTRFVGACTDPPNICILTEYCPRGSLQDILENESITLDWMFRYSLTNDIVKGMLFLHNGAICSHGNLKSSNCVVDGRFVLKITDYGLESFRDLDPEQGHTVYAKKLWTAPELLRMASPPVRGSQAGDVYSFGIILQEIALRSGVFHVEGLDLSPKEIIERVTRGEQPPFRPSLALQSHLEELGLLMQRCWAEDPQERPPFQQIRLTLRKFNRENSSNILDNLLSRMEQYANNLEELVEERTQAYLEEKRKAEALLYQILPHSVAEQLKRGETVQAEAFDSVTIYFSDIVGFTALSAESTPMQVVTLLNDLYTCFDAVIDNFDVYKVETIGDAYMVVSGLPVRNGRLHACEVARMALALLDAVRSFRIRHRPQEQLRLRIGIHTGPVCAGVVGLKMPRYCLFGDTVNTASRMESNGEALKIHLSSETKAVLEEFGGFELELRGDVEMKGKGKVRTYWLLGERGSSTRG
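Compound pre-incubated 30 min at room temperature on GloSensor-loaded HEK293 cells stably carrying hNpr1 and the pGS-40F cGMP biosensor. Stimulation uses hNppA at 0.1 nM final; luminescence is taken at baseline and 20 min post-agonist.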
* marks the source's active call; other numbers are inactive results; ? = inconclusive; [ ] = remark or other dose. % is scaled to controls: 0 for no effect and ±100 for the full control effect; potency is read from the fitted curve at half-maximal effect. This is a subset (hit frequency here may not be typical).

SMILES | hNpr1 antagonist
COc1cc2c(cc1OCc1ccccc1)NC(=O)C21CCN(c2ccccn2)CC1 | ?
CCCN1CC[C@@H](CO)N(C)c2nc(C)ccc2C1 | -4%[70.6 µM]
Cc1nc(-c2cccs2)cc([C@H]2CN3CC[C@H]2C[C@@H]3COC(=O)Nc2ccc(C(C)C)cc2)n1 | ?
COCCN1CCC(N2CCN(C(=O)Cc3ccc(F)cc3)CC2)C1=O (stereo not given) | 6%
CC[C@H]1CN2CC[C@H]1C[C@@H]2CN(Cc1ccc(SC)cc1)Cc1ccc(SC)cc1 | -14%[70.6 µM]
COCc1cn(C[C@H]2CC3CCN2C[C@@H]3C(=O)Nc2ccccc2)nn1 (stereo not given in full) | -1%[70.6 µM]
COc1cc2c(cc1Oc1ccccc1)NC(=O)C21CCN(C(=O)c2cccnc2)CC1 | -24%[70.6 µM]
C=CCN(C)C(=O)[C@H]1CN2CCC1C[C@@H]2Cn1cc(CO)nn1 (stereo not given in full) | -1%[70.6 µM]
CC(Cc1ccncc1)NCc1ccc(OCC(=O)N2CCOCC2)cc1 (stereo not given) | 1%
Cc1ncc2c(n1)C[C@@H]1CC[C@H]2N1S(=O)(=O)c1ccc2c(c1)C(C)(C)C(=O)N2 | 4%
COc1ccc(NC(=O)N2[C@H]3CC[C@@H]2c2cnc(C)nc2C3)cc1F | -11%
COc1cc2c(cc1OCc1ccccc1)NC(=O)C21CCN(c2ncc(F)cn2)CC1 | -21%[70.6 µM]
CCN1CCCN(C(=O)c2cccnc2)CC12CCOCC2 | 5%
N#Cc1cccc(NC(=O)NC[C@H]2C[C@@H]3CCN2C[C@@H]3CN2CCN(c3ccccc3)CC2)c1 | -16%
COc1ccc(NC(=O)N2[C@H]3CC[C@@H]2c2cncnc2C3)c(C)c1 | -3%
CC(=O)NC[C@H]1C[C@@H]2CCN1C[C@@H]2c1cc(-c2ccc3ccccc3c2)nn1C | 3%[70.6 µM]
CN1CCC(N2C[C@@H]3C[C@H](C2)c2ccc(-c4ccc(OC(F)(F)F)cc4)c(=O)n2C3)CC1 | 7%
COc1cc2c(cc1OCc1ccccc1)N(C(=O)c1cnn(C)c1)CC21CCN(C)CC1 | -1%
CCn1cc(CN2CCN(C(=O)Cc3cccs3)CC2)ccc1=O | 1%
Cc1nc(-c2ccccc2Br)cc([C@H]2CN3CC[C@H]2C[C@@H]3CNC(=O)Nc2ccccc2)n1 | 0%
CC(C)NC(=O)N1C[C@@H]2C[C@H](C1)c1ccc(-c3cccc(C(F)(F)F)c3)c(=O)n1C2 | -1%[70.6 µM]
Cc1nc(-c2ccccc2Br)cc([C@H]2CN3CC[C@H]2C[C@@H]3CNC(=O)NC(C)C)n1 | -1%
CC(C)NC(=O)NC[C@H]1C[C@@H]2CCN1C[C@@H]2CN1CCCC1 | 2%[70.6 µM]
COCC(=O)NC[C@H]1C[C@@H]2CCN1C[C@@H]2CN1CCCCC1 | 1%[70.6 µM]
C=C[C@H]1CN2CC[C@H]1C[C@@H]2CNS(=O)(=O)c1ccc(C)cc1 | -1%[70.6 µM]

Exported as tab-separated lines: entries from further up
canonical_smiles	hNpr1 antagonist
COc1cc2c(cc1OCc1ccccc1)NC(=O)C21CCN(c2ccccn2)CC1	?
CCCN1CC[C@@H](CO)N(C)c2nc(C)ccc2C1	-4%[70.6 µM]
Cc1nc(-c2cccs2)cc([C@H]2CN3CC[C@H]2C[C@@H]3COC(=O)Nc2ccc(C(C)C)cc2)n1	?
COCCN1CCC(N2CCN(C(=O)Cc3ccc(F)cc3)CC2)C1=O (stereo not given)	6%
CC[C@H]1CN2CC[C@H]1C[C@@H]2CN(Cc1ccc(SC)cc1)Cc1ccc(SC)cc1	-14%[70.6 µM]
COCc1cn(C[C@H]2CC3CCN2C[C@@H]3C(=O)Nc2ccccc2)nn1 (stereo not given in full)	-1%[70.6 µM]
COc1cc2c(cc1Oc1ccccc1)NC(=O)C21CCN(C(=O)c2cccnc2)CC1	-24%[70.6 µM]
C=CCN(C)C(=O)[C@H]1CN2CCC1C[C@@H]2Cn1cc(CO)nn1 (stereo not given in full)	-1%[70.6 µM]
CC(Cc1ccncc1)NCc1ccc(OCC(=O)N2CCOCC2)cc1 (stereo not given)	1%
Cc1ncc2c(n1)C[C@@H]1CC[C@H]2N1S(=O)(=O)c1ccc2c(c1)C(C)(C)C(=O)N2	4%
COc1ccc(NC(=O)N2[C@H]3CC[C@@H]2c2cnc(C)nc2C3)cc1F	-11%
COc1cc2c(cc1OCc1ccccc1)NC(=O)C21CCN(c2ncc(F)cn2)CC1	-21%[70.6 µM]
CCN1CCCN(C(=O)c2cccnc2)CC12CCOCC2	5%
N#Cc1cccc(NC(=O)NC[C@H]2C[C@@H]3CCN2C[C@@H]3CN2CCN(c3ccccc3)CC2)c1	-16%
COc1ccc(NC(=O)N2[C@H]3CC[C@@H]2c2cncnc2C3)c(C)c1	-3%
CC(=O)NC[C@H]1C[C@@H]2CCN1C[C@@H]2c1cc(-c2ccc3ccccc3c2)nn1C	3%[70.6 µM]
CN1CCC(N2C[C@@H]3C[C@H](C2)c2ccc(-c4ccc(OC(F)(F)F)cc4)c(=O)n2C3)CC1	7%
COc1cc2c(cc1OCc1ccccc1)N(C(=O)c1cnn(C)c1)CC21CCN(C)CC1	-1%
CCn1cc(CN2CCN(C(=O)Cc3cccs3)CC2)ccc1=O	1%
Cc1nc(-c2ccccc2Br)cc([C@H]2CN3CC[C@H]2C[C@@H]3CNC(=O)Nc2ccccc2)n1	0%

Next section.
SMILES | hNpr1 antagonist
COc1ccc(CC(=O)N2CCC3(CC2)c2nccn2-c2ccccc2CN3C)cc1 | ?
CC(C)N1CCC2(CC1)CNCc1ccccc1O2 | -5%
COc1ccc2c(c1)C1(CCN(C(=O)CCc3ccccc3)C1)C(=O)N2C (stereo not given) | -1%
O=C1CO[C@H]2CN(Cc3cccnc3)C[C@H]2N1c1ccccc1 | -1%[70.6 µM]
O=C(COc1ccc(F)cc1)N1CCN2CCS(=O)(=O)N(C3CC3)C(=O)C2C1 (stereo not given) | 4%
COc1cc2c(cc1OCC1CC1)NC(=O)C21CCN(Cc2cccc(O)c2)CC1 | -9%[70.6 µM]
COc1ccc(-c2cn(C[C@H]3CC4CCN3C[C@@H]4C(=O)NCc3ccc(F)cc3)nn2)cc1 (stereo not given in full) | 1%
COCCN1CCC(N2CCN(C(=O)Cc3c(F)cccc3Cl)CC2)C1=O (stereo not given) | 6%
COc1ccc(-c2cc3c(cn2)CN(C)CCN3)cn1 | -21%[70.6 µM]
CN(C)CC(=O)Nc1ccc2n(c1=O)C[C@H]1C[C@@H]2CN(S(=O)(=O)c2ccccc2)C1 | 0%[70.6 µM]
N#Cc1cccc(NC(=O)NC[C@H]2C[C@@H]3CCN2C[C@@H]3CN2CCN(c3ccc(F)cc3)CC2)c1 | -11%
O[C@H]1[C@H](NC2CCOCC2)[C@@H](C2CCCCC2)C[C@H]1O | 0%[70.6 µM]
CNCC(=O)N1CC(COC)C2(CCNCC2)C1 (stereo not given) | -2%
Cn1nc(C2CCCCC2)cc1[C@H]1CN2CC[C@H]1C[C@@H]2CNC(=O)COc1ccccc1 | 0%
O=C1NCCCCCCN(Cc2ccncc2)[C@@H]2CN(C(=O)COc3ccc(F)cc3)CC[C@@H]12 | 7%
O=C1Nc2ccccc2CC12CCN(Cc1cccnc1)C2 (stereo not given) | 0%[70.6 µM]
COc1cc2c(cc1Oc1cccc(N(C)C)c1)NC(=O)C21CCN(C(=O)C2CCC2)CC1 | -14%
O=C(c1ccc(F)cc1)N1C[C@@H]2C[C@H](C1)c1c(C3CCCCC3)ccc(=O)n1C2 | -11%[70.6 µM]
CC(=O)NC[C@H]1C[C@@H]2CCN1C[C@@H]2c1cc(-c2cccs2)nn1C | 2%[70.6 µM]
COc1ccc(-c2cc([C@H]3CN4CC[C@H]3C[C@@H]4CNC(=O)CSCC(=O)O)nc(C)n2)cc1OC | 11%
O=C(N1CCC2(CC1)NCc1ccccc1-n1ccnc12)C1(c2ccccc2)CC1 | ?
COc1ccc(-c2cccc3c2CCNC3)cc1OC | -1%
CCCS(=O)(=O)N1C[C@@H]2C[C@H](C1)c1c(-c3ccc(Cl)cc3)ccc(=O)n1C2 | 6%[70.6 µM]
CC(C)CN1Cc2ccccc2-n2ccnc2C12CCN(C(=O)c1ccsc1)CC2 | 0%
CC(C)NC(=O)NC[C@H]1C[C@@H]2CCN1C[C@@H]2CN1CCOCC1 | 8%[70.6 µM]
SMILES | hNpr1 antagonist
COc1cc2c(cc1OCc1ccc(Cl)cc1)N(Cc1ccccc1)CC21CCN(C(C)=O)CC1 | -21%
CCC(CC)c1cc([C@H]2CN3CC[C@H]2C[C@@H]3CNC(=O)Nc2ccc(OC)cc2)nc(-c2ccncc2)n1 | -7%
CC(=O)c1ccc(NC(=O)OC[C@H]2C[C@@H]3CCN2C[C@@H]3c2cc(-c3cccs3)nn2C)cc1 | -5%
CC(C)NC(=O)NC[C@H]1C[C@@H]2CCN1C[C@@H]2CN1CCN(C)CC1 | 1%[70.6 µM]
CC(=O)N1CCC(C(=O)N2CCC3(CC2)c2nccn2-c2ccccc2CN3C)CC1 | 4%
COc1ccccc1-c1cc([C@H]2CN3CC[C@H]2C[C@@H]3COC(=O)Nc2cccc(C(C)=O)c2)nc(C)n1 | -11%
CC[C@H]1CN2CC[C@H]1C[C@@H]2CNC(=O)c1ccc(F)c(Cl)c1 | 2%[70.6 µM]
O=S(=O)(NC[C@H]1C[C@@H]2CCN1C[C@@H]2CN1CCCCC1)c1ccc(Cl)cc1 | 0%[70.6 µM]
O=C(Cc1c[nH]c2ncc(-c3cccnc3)cc12)N1CCN(Cc2ccccc2)CC1 | 1%[70.6 µM]
CCCS(=O)(=O)NC[C@H]1C[C@@H]2CCN1C[C@@H]2c1cc(C2CCCCC2)nn1C | 1%[70.6 µM]
O=C(Nc1ccccc1)C1=NO[C@@H]2CN(Cc3ccccn3)C[C@H]12 | 5%[70.6 µM]
CC(C)(CC(=O)O)CC(=O)N1C[C@@H]2C[C@H](C1)c1c(-c3cccs3)ccc(=O)n1C2 | 3%[70.6 µM]
Cc1ccccc1-c1ccc2n(c1=O)C[C@H]1C[C@@H]2CN(C(=O)CSCC(=O)O)C1 | -1%[70.6 µM]
CN1CCC(NCC2(CO)C[C@@H](O)[C@@H](O)C2)CC1 (stereo not given in full) | 1%[70.6 µM]
CC(C)NC(=O)NC[C@H]1C[C@@H]2CCN1C[C@@H]2CN1CCN(c2ccccn2)CC1 | -4%[70.6 µM]
O=C(c1ccccc1)N1C[C@@H]2C[C@H](C1)c1ccc(C3CCCCC3)c(=O)n1C2 | -10%[70.6 µM]
O=C1CO[C@H]2CN(Cc3ncc[nH]3)C[C@H]2N1Cc1cccnc1 | -1%[70.6 µM]
Cn1nc(-c2ccc3ccccc3c2)cc1[C@H]1CN2CC[C@H]1C[C@@H]2CNC(=O)NCc1ccccc1 | -12%
O=C(NC[C@H]1C[C@@H]2CCN1C[C@@H]2CN1C[C@@H]2C[C@H](C1)c1cccc(=O)n1C2)c1ccc2c(c1)OCO2 | -3%
COCCNC(=O)[C@H]1CN2CC[C@H]1C[C@@H]2Cn1cc(CN(C)C)nn1 | 0%[70.6 µM]
Cc1ccc(CN2C[C@@H]3C(=O)N(C)C(=O)[C@@H]3C2)o1 | -1%
Cc1ncc2c(n1)C[C@@H]1CC[C@H]2N1C(=O)NC(C)C | 4%
O=C(NC1CCCCC1)[C@H]1CN2CC[C@H]1C[C@@H]2Cn1cc(CCO)nn1 | 1%[70.6 µM]
Cc1nc(-c2ccco2)cc([C@H]2CN3CC[C@H]2C[C@@H]3CNC(=O)Nc2ccccc2)n1 | -11%[70.6 µM]
O=C(c1cccs1)N1C[C@@H]2C[C@H](C1)c1ccc(C3CCCCC3)c(=O)n1C2 | 1%[70.6 µM]
SMILES | hNpr1 antagonist
COc1ccc(-c2cc([C@H]3CN4CC[C@H]3C[C@@H]4CNC(=O)c3cccs3)n(C)n2)cc1OC | -3%
O=C(c1ccc(F)cc1)N1C[C@@H]2C[C@H](C1)c1c(-c3ccc(Cl)cc3)ccc(=O)n1C2 | -1%[70.6 µM]
CN1CCCCCCN(Cc2cccnc2)[C@H]2CCC[C@H]2C1=O | -1%
COCCC(=O)N1CCC2(CC1)C(=O)Nc1cc(Oc3cccc(N(C)C)c3)c(OC)cc12 | -8%
O=C(C1CCCCC1)N1C[C@@H]2C[C@H](C1)c1ccc(-c3cccc(C(F)(F)F)c3)c(=O)n1C2 | 4%
COCc1cc(N2CCN(C)C3(CCC(=O)N(C)CC3)C2)ncn1 (stereo not given) | 14%
Cc1ccc([C@H]2CN(C(=O)C(=O)c3cccn3C)[C@@H]3C4CCN(CC4)[C@H]23)cc1 | 0%
O=C(C1CCC1)N1[C@H]2CC[C@@H]1c1cnc(-c3ccc(F)cc3)nc1C2 | 18µM*
O=C(Cc1ccccc1)N1[C@H]2CC[C@@H]1c1cnc(-c3ccc(F)cc3)nc1C2 | ?
O=C(Nc1cccc(C(F)(F)F)c1)OC[C@H]1C[C@@H]2CCN1C[C@@H]2c1cc(C2CCCC2)nc(-c2ccncc2)n1 | ?
Cc1ccsc1C(=O)N1CCC2(CC1)NCc1ccccc1-n1ccnc12 | -9%
COc1cc2c(cc1OC1CCCC1)NC(=O)C21CCN(c2cnccn2)CC1 | -16%[70.6 µM]
C=C[C@H]1CN2CC[C@H]1C[C@@H]2CNCc1cccc(Cl)c1 | -14%[70.6 µM]
CCCNC(=O)OC[C@H]1C[C@@H]2CCN1C[C@@H]2c1cc(-c2ccc3ccccc3c2)nn1C | -10%[70.6 µM]
Cc1nc(-c2ccco2)cc([C@H]2CN3CC[C@H]2C[C@@H]3CNC(=O)C2CCC2)n1 | 1%[70.6 µM]

From PubChem
